CSC inhib – cancer stem cell inhibition | cancer stem cell-like cells viability, luminescence | inhibition, % at 7.5 µM | 1.1% of 300,000 active | AID 2717;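 active = mean at 75% or more and at least half the replicates too; inconclusive = mean and replicates disagree; tested in HMLE shEcad cells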;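 also: 0% = median of negative and 100% = median of positive control wells; the first replicate is given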
Rce1 inhib – yeast Ras-converting enzyme inhibition; Q03530; yeast membranes, quenched prenylated peptide cleavage fluorescence; calls only; 0.27% of 290,000 active; AID 2563;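 active = fall in fluorescence gain of 50% or more versus controls, with final raw signal at or below 3038400; inconclusive = same 50% fall but final raw signal above 3038400; inactive = fall in fluorescence gain under 50%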;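 also: plate controls were neutral control wells for no effect and wells lacking membranes for full effect; tested at 10 µM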
Yeast UUG start – modulators of start codon recognition fidelity in yeast; S. cerevisiae UUG-firefly luciferase reporter, luminescence/redox ratio; activity score, % at 18.7 µM; 0.13% of 350,000 active; AID 602363;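 active = replicate mean at a twofold rise or more, about +100% in these data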;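 also: firefly luciferase made from a UUG start codon reports start codon fidelity; reporter light over untreated wells divided by growth signal over untreated wells; some hits fall short of that in this replicate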
MT1-MMP act inh – MT1-MMP (human) activation inhibition. P50281. HT1080 RFP-PRO-GFP cells, GFP/RFP ratio fluorescence, overnight; percent of plate control window, DMSO zero. GFP/RFP ratio change, % at 20 µM. 0.061% of 360,000 active;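 active = GFP/RFP ratio change of at least 30% with cell ATP level not reduced by more than half and red fluorescence within 50% of control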; also: strong numbers were not always called active
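Compound: 20 µM single dose, 1% DMSO / System: HT1080 RFP-PRO-GFP cells / Controls: DMSO and RFP-L50D-GFP cell wells / Read-out basis: GFP/RFP fluorescence ratio / Schedule: overnight compound exposure at 37 °C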
eIF4H FP inh – inhibitors of RNA binding by human eIF4H; inhibition, % at 35 µM; eIF4H fluorescence polarization binding assay; 0.94% of 290,000 active; Q15056;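 active = 50% or more with normal probe brightness, or confirmed in later tests; inconclusive = above 50% with abnormal brightness, or retests that disagree; inactive = below 50% or failed in later tests; about a fifth of its hits are not listed in these tables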;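 also: calls also rest on retests at 20 µM and on dose response follow-up; 0% = protein and probe with vehicle and 100% = probe without protein; strong numbers were not always called active; many hits fall short of the cut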
PABP polyA inh – PABP-poly(A) binding inhibition | P11940 | PABP-poly(A) RNA binding, fluorescence polarization | inhibition, % at 35 µM | 1% of 290,000 active | AID 2014;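 active = 50% or more with normal probe brightness, or confirmed in later tests; inconclusive = above 50% with abnormal brightness, or retests that disagree; inactive = below 50% or failed in later tests; about a fifth of its hits are not listed in these tables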;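 also: calls also rest on retests at 20 µM and on dose response follow-up; controls were probe without protein and protein plus probe with vehicle; some compounds called inactive have numbers as strong as hits; many hits fall short of the cut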
Target sequence (P11940 whole entry, looked up): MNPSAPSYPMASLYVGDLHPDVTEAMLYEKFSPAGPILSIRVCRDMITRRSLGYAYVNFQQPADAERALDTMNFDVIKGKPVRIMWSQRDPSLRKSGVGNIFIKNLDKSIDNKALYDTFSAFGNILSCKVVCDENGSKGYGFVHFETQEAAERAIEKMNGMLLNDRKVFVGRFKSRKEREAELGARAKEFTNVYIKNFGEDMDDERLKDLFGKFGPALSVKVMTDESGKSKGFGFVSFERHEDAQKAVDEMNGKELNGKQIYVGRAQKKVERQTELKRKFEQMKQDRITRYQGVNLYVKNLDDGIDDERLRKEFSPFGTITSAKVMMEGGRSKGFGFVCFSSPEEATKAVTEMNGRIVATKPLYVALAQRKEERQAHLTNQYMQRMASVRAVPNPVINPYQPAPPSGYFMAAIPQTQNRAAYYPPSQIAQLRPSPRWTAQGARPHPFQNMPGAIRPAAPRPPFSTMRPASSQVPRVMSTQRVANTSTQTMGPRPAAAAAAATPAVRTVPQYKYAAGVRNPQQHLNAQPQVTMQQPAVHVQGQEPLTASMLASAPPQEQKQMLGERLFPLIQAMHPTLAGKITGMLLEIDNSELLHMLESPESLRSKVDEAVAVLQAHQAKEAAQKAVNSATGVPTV
Env fusion inh – HIV envelope-mediated fusion inhibition; AID 651610; 1.1% of 360,000 active; inhibition, % at 12.3 µM; HeLa-JRFL Env/CEM21 cell fusion, luciferase;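 active = mean replicate inhibition score of at least 50 and every replicate individually at or above 50; inconclusive = only one of the two criteria met; inactive = mean below 50 and not all replicates reaching 50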;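 also: 0% = plate neutral controls and 100% = maraviroc near 300 nM; one replicate is shown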
MT1-MMP act inh RFP – recorded beside MT1-MMP act inh, whose call it bears; RFP signal change, %; measured here: RFP expression control read;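 0 = vehicle wells; hits needed this value within 50% of zero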
Starred values were filed as active, the others as inactive; i = inactive; ? = inconclusive; . = not tested or not shown.

Preview (2 entries):
Values in the order – MT1-MMP act inh RFP	Yeast UUG start	CSC inhib	Rce1 inhib	eIF4H FP inh	PABP polyA inh	Env fusion inh	MT1-MMP act inh
- COCCCNC(=O)COc1ccc(Br)cc1Cl
→ -3	.	2	i	-6	-9	-7	-4
- COc1ccc(CCNC(=O)c2ccc3c(c2)OCCO3)cc1
→ 2	.	-1	i	-2	-2	-23	0

Main list, from the first entry:
Values in the order – MT1-MMP act inh RFP	Yeast UUG start	CSC inhib	Rce1 inhib	eIF4H FP inh	PABP polyA inh	Env fusion inh	MT1-MMP act inh
- COCCCNC(=O)COc1ccc(Br)cc1Cl
→ -3	.	2	i	-6	-9	-7	-4
- COc1ccc(CCNC(=O)c2ccc3c(c2)OCCO3)cc1
→ 2	.	-1	i	-2	-2	-23	0
- O=C(N1CCCCCC1)N1CCN(S(=O)(=O)N2CCOCC2)CC1
→ 2	-17	-8	i	6	10	.	6
- Cc1cccc(C)c1NC(=O)C1(N(Cc2ccco2)C(=O)CC2NC(=O)NC2=O)CCCCC1 (stereo not drawn)
→ 7	-3	9	i	-3	2	-14	2
- CC(/C=N/NC(=O)c1cnccn1)=C\c1ccco1
→ 6	-23	-4	i	3	8	-9	4
- CCOC(=O)N1CCC(NC(=O)c2cnn3cccnc23)CC1
→ 3	1	3	i	-2	-3	.	0
- CSc1ccccc1C(=O)NCCCOC(C)C
→ 0	-14	11	i	2	7	.	-3
- Cn1cc(CN2CCCC(C(=O)c3cccs3)C2)c(-c2cccc(Cl)c2)n1 (stereo not drawn)
→ 1	-12	-5	i	1	-6	15	4
- COc1ccc(N(CC(=O)Nc2ccc3c(c2)OCO3)S(=O)(=O)c2c(C)nn(C)c2C)cc1
→ 2	-12	-12	i	-8	-24	-14	4
- O=C(O)CCNC(=O)C12CC3CC(CC(C3)C1)C2
→ 4	.	-6	i	10	-7	-3	3
- O=c1[nH]c2cc3c(cc2cc1C(c1nnnn1Cc1ccccc1)N1CCCc2ccccc21)OCO3 (stereo not drawn)
→ .	.	-5	i	19	7	4	.
- NC(=O)COC(=O)CCSc1ccc(Cl)cc1
→ 4	.	22	i	-6	-14	-4	2
- O=C(CCc1ccccc1)Nc1ccc2ccccc2n1
→ -1	.	8	i	2	-14	-102	-1
- O=C(N/N=C/C=C/c1ccccc1[N+](=O)[O-])c1ccncc1
→ 3	-14	-11	i	2	3	-2	0
- Cc1ccc2[nH]c3c(c2c1)CN(C(=O)CN1CCN(c2cccc(C)c2C)CC1)CC3
→ 4	21	.	i	?	?	.	-11
- Cc1nc2ccccc2n1C1CCN(CC(=O)NCc2ccc(F)cc2)CC1
→ -8	-9	6	i	11	-12	.	-1
- CC1(C)C(=O)OC(/C=C\c2ccccc2)C(C)(C)C1=O (stereo not drawn)
→ 1	1	9	i	-8	2	-2	2
- CNc1nc(-c2ccc3c(c2)CCN3C(=O)CC(C)(C)C)c(C)s1
→ 7	.	46	i	-13	-6	6	4
- CCOc1ccc(N(CC(=O)N/N=C/c2cc(Br)c(C)o2)S(C)(=O)=O)cc1
→ 3	.	-16	i	-7	-4	-6	1
- O=S(=O)(Nc1ccc(Br)cc1)c1cccc2cccnc12
→ 0	.	-8	i	7	-1	7	6
- CC(C)CCN1C(Nc2ccccc2)=NC[C@@H]1CC(C)C
→ 4	2	-1	i	0	12	3	0
- Cc1ccc(NC2=CC(=O)CC(c3ccc(Cl)cc3)C2)cc1 (stereo not drawn)
→ -3	.	11	i	-2	-6	.	-2
- CCN1C(=O)CSc2ccc(C(=O)NCc3ccco3)cc21
→ 1	5	-8	i	-1	-6	.	5
- [O-]/C(=C(\C(=S)NCCN1CCOCC1)[n+]1ccccc1)c1ccc(Cl)s1
→ 4	-17	-3	i	6	-8	0	-2
- CN1CCN(c2ccc(S(=O)(=O)N3CCCCC3)cc2NC(=O)COc2ccc(F)cc2)CC1
→ -5	-7	-4	i	.	.	7	-2
- CC(C(=O)N1CCOCC1)N1C(=O)c2ccccc2C1=O (stereo not drawn)
→ 2	22	-17	i	0	0	.	1
- OC1c2c(F)cccc2N=C2CCCCCN21 (stereo not drawn)
→ 3	-14	.	.	.	.	9	-1
- COc1ccccc1NS(=O)(=O)c1cc(NC(=O)Nc2cccc(C)c2)ccc1N1CCCCC1
→ -10	.	-8	i	6	0	-295	3
- Cc1cc(=O)c(C(=O)O)c(C)n1-c1ccccc1
→ 2	1	.	.	.	.	-7	2
- CNc1ncnc2c1ncn2[C@H]1CN(Cc2ccncc2)C[C@@H](CO)O1
→ 7	-7	.	.	.	.	4	0
- COc1ccccc1C1=NOC(CN2C(=O)c3ccccc3S2(=O)=O)C1 (stereo not drawn)
→ 4	.	-10	i	-7	-16	-59	5
- c1ccc2c(C3=NNC(=NC4CC4)SC3)c[nH]c2c1
→ 9	-72	7	i	-9	-8	6	5
- CS(=O)(=O)n1nc(-c2cccnc2)nc1NCc1ccccc1
→ -3	.	-1	i	1	7	8	0
- Cc1cc(Cl)ccc1Oc1ccccc1C(=O)CC#N
→ -1	.	26	.	2	0	-31	-2
- O=C(NC1CCCCC1)C(c1ccc(O)c(O)c1)N(C(=O)Cn1nnc2ccccc21)c1cccc(O)c1 (stereo not drawn)
→ 2	.	-5	i	3	-6	-5	8
- COC(=O)c1c(C)[nH]c(C(=O)C(C)OC(=O)C2=NNC(=O)CC2)c1C (stereo not drawn)
→ 5	.	41	i	-3	-9	36	3
- Cc1ccc(OCCN2CCN(C(=O)CCC(=O)Nc3nnc(C(C)C)s3)CC2)cc1
→ -18	-5	-8	i	1	-6	.	-4
- CCOc1ccccc1C1CC(c2cccc(NS(C)(=O)=O)c2)=NN1C(=O)c1ccccc1 (stereo not drawn)
→ 0	13	-8	i	1	19	-21	-3
- CN(c1ccc(OCC(=O)OCC(=O)Nc2c(F)c(F)c(F)c(F)c2F)cc1)S(=O)(=O)c1ccc(F)cc1
→ 4	.	2	i	-7	27	8	-3
- C=CCS/C(N)=N\N=C\c1cc(Br)cc([N+](=O)[O-])c1O
→ -10	-25	25	i	-14	14	-13	1
- COc1ccc(CC(=O)c2ccc(O)cc2O)cc1
→ 4	8	-7	i	-11	5	.	5
- COC(=O)c1ccccc1N=NNc1ccc([N+](=O)[O-])cc1
→ -2	-21	.	.	.	.	4	1
- COc1ccccc1N1CCN(C(=O)c2ccc3nc[nH]c3c2)CC1
→ 5	-17	-1	i	14	-8	3	6
- COc1cccc2c1OC1(C)CC2NC(=O)N1c1cccc(C(=O)N2CCN(c3ccccc3)CC2)c1 (stereo not drawn)
→ 0	-4	-1	i	5	?	14	4
- Cc1cc(OCC(=O)NC(C)c2ccccc2)ccc1[N+](=O)[O-] (stereo not drawn)
→ -3	.	-6	i	-1	5	-9	2
- CCn1c(SCc2nc3sc(C(=O)O)c(C)c3c(=O)[nH]2)nc2ccccc21
→ -1	-9	.	i	83*	80*	.	-12
- O=C(CN1CCN(S(=O)(=O)c2ccc(Cl)s2)CC1)N1CCOCC1
→ 4	-27	-6	i	5	-6	6	3
- Cc1nnc(SCCC(=O)Nc2nc(-c3ccccc3)ns2)s1
→ 1	-22	8	i	-7	7	18	3
- COc1ccc2c(c1)c(=O)oc1cc(OCC(=O)NC3CC3)ccc12
→ -3	-16	.	i	6	-1	.	-1
- Cc1cc(O)c(C(C)C)cc1NC(=O)Nc1cccc2ccccc12
→ -11	-21	28	i	1	6	20	-13
- N#CC1=C(S)N(c2ccccc2)C(c2ccc(-c3cc(Cl)ccc3Cl)o2)NC1=O (stereo not drawn)
→ 4	.	15	i	-3	0	-2	5
- Cc1cc(C(=O)N2CCN(c3ccc(C(F)(F)F)cn3)CC2)c(C)o1
→ -10	17	-5	i	5	-2	5	4
- O=C(CCN1C(=O)C2C3CC(C(Br)C3Br)C2C1=O)OCC(=O)c1ccccc1 (stereo not drawn)
→ 2	.	-4	i	1	27	-3	-1
- COc1ccc(Nc2nc(N)nc(CN3CCOCC3)n2)cc1
→ 5	-27	1	i	5	-6	.	-1
- COc1cc(NC(=O)c2cc3ccccc3cc2OC)ccc1NC(=O)c1cccs1
→ -4	-6	3	i	-9	12	52	-16
- O=Cc1cc(OCc2ccccc2)ccc1[B-](F)(F)F
→ -1	-34	.	.	.	.	22	-5
- CC12CCCCC1=CC(=O)CC2 (stereo not drawn)
→ 1	-2	.	.	.	.	6	-6
- CC(=O)Nc1cc(-c2ccc(N(C)C)cc2)cn2c(-c3ccc(F)c(Cl)c3)cnc12
→ 18	-12	.	.	.	.	-31	-66
- CCC(C)(C)NC(=O)COc1ccc(OCc2ccccc2)cc1
→ -1	.	19	i	-1	11	-4	1
- Cc1[nH]c2ccccc2c(=O)c1SC(F)(F)C(F)C(F)(F)F (stereo not drawn)
→ -2	-14	1	i	-8	-3	.	-2

Further compounds follow.
Values in the order – MT1-MMP act inh RFP	Yeast UUG start	CSC inhib	Rce1 inhib	eIF4H FP inh	PABP polyA inh	Env fusion inh	MT1-MMP act inh
- CCN1C(=O)C(CC(=O)Nc2ccc(F)cc2)N(Cc2ccc3c(c2)OCO3)C1=S (stereo not drawn)
→ -4	1	4	i	5	1	44	-1
- [O-][n+]1c2ccccc2c2n1CCN=C2c1ccc(Cl)cc1
→ 0	11	-14	i	.	.	21	2
- CCN1CCN(CC(=O)Nc2ccc(Cl)c(S(=O)(=O)N(C)C)c2)CC1
→ -6	.	-16	i	1	0	-3	-12
- COCCN(C(C)=O)c1nnc(-c2ccccn2)s1
→ 3	-14	-10	i	8	4	.	-1
- O=C1CC(C(=O)Nc2nccs2)C(c2ccccc2)O1 (stereo not drawn)
→ -4	-17	-2	i	-2	-5	-80	-2
- CNC(=S)N(Cc1cc2cc(OC)c(OC)cc2[nH]c1=O)C1CCCC1
→ 5	.	-7	i	-7	-4	-12	-2
- CCCCNc1ncnc2sc3c(c12)CCN(CCC)C3
→ -3	0	-14	i	-11	4	23	-6
- O=C(Nc1nc2c(F)cc(F)cc2s1)c1ccc([N+](=O)[O-])o1
→ -25	-11	96*	i	10	4	.	-10
- COc1ccc(C2CC(=O)N3CN(c4ccc(C)c(Cl)c4)CSC3=C2C#N)cc1 (stereo not drawn)
→ 2	-27	-10	i	-3	39	-51	1
- NS(=O)(=O)c1ccc(NC(=O)CCc2ccccc2)cc1
→ 1	-5	-4	i	6	6	-23	-1
- Cc1cccc(NC(=O)c2ccc3c(c2)OCCO3)n1
→ 5	-50	4	i	6	-8	.	-1
- O=C(/C=C/c1ccco1)Nc1ccc2nc3n(c(=O)c2c1)CCCC3
→ 1	.	17	i	32	8	0	1
- Cc1cccc(C)c1NC(=O)CSc1cc(C(=O)c2nccn2C)c2ccccc2n1
→ -5	.	4	i	3	7	-3	-2

Compound activity deposited in PubChem by several laboratories.
